RecA splice inh – inhibitors of M. tuberculosis RecA intein splicing | cell-free RecA intein splicing, fluorescence | inhibition, %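 (about 9 µM by stock and volumes)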 | actives 0.75% (n = 290,000) | AID 2221; in the data active = inhibition above about 30%; inconclusive = no clear call, values can overlap the other calls;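 note: 0% = vehicle wells and 100% = reference inhibitor control wells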
Target sequence (P9WHJ3 whole entry, looked up, canonical isoform): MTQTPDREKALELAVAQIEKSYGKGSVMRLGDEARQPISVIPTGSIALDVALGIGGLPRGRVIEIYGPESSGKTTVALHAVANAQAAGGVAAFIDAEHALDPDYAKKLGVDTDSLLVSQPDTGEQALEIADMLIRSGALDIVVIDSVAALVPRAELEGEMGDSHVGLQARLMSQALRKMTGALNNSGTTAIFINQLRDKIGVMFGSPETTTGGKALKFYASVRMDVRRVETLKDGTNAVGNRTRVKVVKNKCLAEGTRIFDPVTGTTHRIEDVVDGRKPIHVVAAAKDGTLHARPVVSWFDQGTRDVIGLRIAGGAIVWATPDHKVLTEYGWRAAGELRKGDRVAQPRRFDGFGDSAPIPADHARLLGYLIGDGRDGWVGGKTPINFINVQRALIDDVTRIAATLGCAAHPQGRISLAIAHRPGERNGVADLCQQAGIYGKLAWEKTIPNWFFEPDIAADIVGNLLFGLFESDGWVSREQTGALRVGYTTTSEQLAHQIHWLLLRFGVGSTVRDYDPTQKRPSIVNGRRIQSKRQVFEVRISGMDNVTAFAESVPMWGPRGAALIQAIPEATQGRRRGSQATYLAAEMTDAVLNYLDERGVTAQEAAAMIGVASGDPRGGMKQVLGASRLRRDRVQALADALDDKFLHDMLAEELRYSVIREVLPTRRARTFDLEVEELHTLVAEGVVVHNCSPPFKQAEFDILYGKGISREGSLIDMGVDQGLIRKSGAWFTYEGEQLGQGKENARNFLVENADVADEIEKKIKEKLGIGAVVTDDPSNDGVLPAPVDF
Mtb bLac sens – beta-lactam sensitization of Mtb H37Rv | M. tuberculosis H37Rv growth with meropenem, percent inhibition; hits of this screen are not shown here | inhibition, % at 25 µM | actives 0.27% (n = 330,000) | AID 434955;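 active = about 74% or more and at least 40 points above the plate without the antibiotic, then above 30% in a dose series; inconclusive = first-round hits that could not be retested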;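 note: growth measured after seven days incubation then overnight dye step; 0% = bacteria only wells and 100% = bacteria with antibiotic; twin plates without the antibiotic show which effects depend on it; some results filed as inactive read as strong as hits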
Mtb growth – M. tuberculosis H37Rv growth inhibitors, H37Rv strain (AID 1626) | one-dose inhibition, % at 10 µM; IC50 in µM for titrated hits | M. tuberculosis H37Rv growth inhibition; higher % means a stronger effect | actives 0.95% (n = 220,000);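 active = confirmed in a dose series; inconclusive = inhibition above 80% but not taken into the dose series; inactive = below 80% or under 30% at every dose of the series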;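 note: bacteria incubated seven days before Alamar blue readout; 0% = bacteria only wells and 100% = bacteria with antibiotic wells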
YopH inh – inhibitors of Yersinia enterocolitica YopH tyrosine phosphatase. fluorescence Ex485/Em525. inhibition, %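 (about 10 µM by stock and volumes)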. actives 0.16% (n = 140,000). AID 898;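 active = inhibition of 50% or more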;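 note: controls were vehicle for no effect and minimum signal wells for full effect; inactives centre near -20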
Arbovirus inh – antivirals against arbovirus infection. arbovirus infection cell-based antiviral screen. inhibition, % at 10 µM. actives 0.37% (n = 200,000);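 active = inhibition from about 30%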;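 note: bluetongue infection of BSR cells; cell survival read as ATP light after 72 h; 0% = infected wells without compound and 100% = uninfected wells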
Arbovirus inh repeat – also measured in Arbovirus inh; calls as there; inhibition, %; measured here: 10K subset replicate screen; many hits read low in the repeat;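 first of two repeat runs on a subset; 0% = infected and 100% = uninfected wells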
* = called active by the depositor; u = inconclusive; x = no result given. Not all compounds are listed; rates above refer to the full screens.

The opening 3 records, to show the layout:
SMILES | RecA splice inh | Mtb bLac sens | Mtb growth | YopH inh | Arbovirus inh | others
CCCS(=O)(=O)N1CCCC(C(=O)NCCN2CCC(Cc3ccccc3)CC2)C1 (stereo not given) | 2.0 | -26 | -11% | -33 | -6
Cc1nc2ccc(Cl)cc2c(=O)n1-c1cccc(Cl)c1 | 1.0 | 1 | x | x | x
COc1ccc(NC(=O)C(=O)NCCN2CCN(C(=O)C(c3ccccc3)c3ccccc3)CC2)cc1 | -1.0 | -3 | -2% | -37 | 3

The list itself, from the first entry:
SMILES | RecA splice inh | Mtb bLac sens | Mtb growth | YopH inh | Arbovirus inh | others
CCCS(=O)(=O)N1CCCC(C(=O)NCCN2CCC(Cc3ccccc3)CC2)C1 (stereo not given) | 2.0 | -26 | -11% | -33 | -6
Cc1nc2ccc(Cl)cc2c(=O)n1-c1cccc(Cl)c1 | 1.0 | 1 | x | x | x
COc1ccc(NC(=O)C(=O)NCCN2CCN(C(=O)C(c3ccccc3)c3ccccc3)CC2)cc1 | -1.0 | -3 | -2% | -37 | 3
Cc1csc2nc(CNC(=O)CCC(=O)O)cn12 | -0.3 | 0 | 3% | -31 | 11 | Arbovirus inh repeat=-1
CN=C1SC(CC(=O)Nc2cccc(C(F)(F)F)c2)C(=O)N1C (stereo not given) | -5.0 | 8 | -3% | -9 | 0
CC(=O)O/N=C(/c1nonc1N)N(C)C | -1.8 | -10 | -10% | x | 4
CCc1cc(=O)oc2cc(OC(C)C(=O)NCC(O)c3ccccc3)c(Cl)cc12 (stereo not given) | -1.1 | 9 | x | x | x
Cc1ccc(S(=O)(=O)NCc2ccccc2)cc1C(=O)N1CCCCC1 | 1.3 | 4 | x | x | x
Cc1cc(NS(=O)(=O)c2ccc(NC(=O)c3cc(-c4ccccc4Cl)nc4ccccc34)cc2)no1 | 6.5 | -4 | -8% | -24 | 6
COC(=O)NN1C(=O)C(c2ccccc2)=C(c2ccc(Cl)cc2)C1=O | 6.0 | 6 | x | x | x
Cc1ccc(NC(=O)CCN2C(=O)c3ccncc3C2=O)cc1 | -1.2 | 2 | -4% | -73 | -3
CC/C(=N\NC(=O)c1ccc2c(c1)OCO2)C12CC3CC(CC(C3)C1)C2 | -1.0 | -1 | -13% | 9 | -7
O=C(NCc1ccc(F)cc1)c1nc(-c2cccs2)no1 | -0.3 | -2 | 17% | x | -17
NS(=O)(=O)c1cccc(NC(=O)COc2ncnc3c2cnn3-c2ccccc2)c1 | -0.3 | -10 | -3% | x | 1
COc1ccc(S(=O)(=O)N2CCOC2CNC(=O)C(=O)NCc2ccc3c(c2)OCO3)cc1OC (stereo not given) | 2.0 | 4 | x | x | x
COc1ccc(OCCSc2nnc(CCNC(=O)c3ccc(OC)cc3)n2C)cc1 | -1.5 | -1 | -14% | -2 | 1
COc1ccccc1/C=C/C=N\N1CCN(Cc2ccccc2Cl)CC1 | -2.2 | 2 | 6% | -36 | -18
Cc1ccccc1N1C(=O)/C(=C/c2ccco2)C(=O)NC1=S | 19 | u | x | x | x
CC1(C)C2CCC1(C)C(NCC(O)COc1ccc(C#N)cc1)C2 (stereo not given) | 0.4 | -7 | x | x | x
NS(=O)(=O)c1ccc(CCNC(c2ccccc2)c2ccccc2)cc1 | 4.7 | -6 | x | x | x
COc1ccc(C(C)=O)cc1CSc1nnc(SCc2cc(C(C)=O)ccc2OC)s1 | 1.3 | -1 | -3% | x | x
COc1cc(CC(=O)OCC(=O)Nc2ccc([N+](=O)[O-])cc2)cc(OC)c1OC | -0.4 | 1 | -7% | x | -4
CCc1ccc(S(=O)(=O)NCc2cn3ccccc3n2)s1 | 1.1 | 0 | 5% | -22 | -4
CCc1nnc(NS(=O)(=O)c2ccc(NC(=O)c3ccc(Br)cc3)cc2)s1 | 7.8 | 2 | x | x | x
COc1ccccc1NC(=O)CN1C(=O)COc2ccc(S(=O)(=O)N3CCC(C)CC3)cc21 | 0.4 | 1 | x | x | x
Cc1nnc2ccc(-c3cccc(NS(=O)(=O)c4ccccc4[N+](=O)[O-])c3)nn12 | -3.7 | -15 | x | x | x
O=S(=O)(NCCN1CCCC1)c1cccc2cccnc12 | x | -4 | -7% | -32 | -1 | Arbovirus inh repeat=2
CCN1C(=O)/C(=C/c2cc(C)n(C)c2C)SC1=Nc1ccc(OC)cc1 | -2.1 | -12 | 12% | -49 | -6
Cc1ccc(C(=O)CCC(=O)OCc2nnc(-c3ccccc3)o2)cc1 | -3.0 | 0 | x | x | x
COc1cccc(CN(CC2CCCO2)S(=O)(=O)c2ccc(S(=O)(=O)NCC3CCCO3)cc2)c1OC (stereo not given) | 0.3 | 0 | -4% | -5 | -11
Cc1ccc(NC(=O)Cn2cnc3c(nnn3Cc3ccc(F)cc3)c2=O)cc1 | x | 2 | -2% | x | 0
CCCCN(CCCC)CCNC(=O)c1ccc2nc(-c3ccccc3NC(C)=O)c(=O)[nH]c2c1 | -4.9 | -7 | 7% | x | -6
Nc1nc(SCc2ccccc2)ns1 | 1.8 | 51 | 44% | 16 | -4
Cc1ccc(NC(=O)c2nc[nH]c2C(=O)N2CCN(c3ccccc3)CC2)cc1 | 1.9 | 5 | -3% | x | x
Cc1ccc2[nH]c(=O)c(CN(C(=O)c3cccc([N+](=O)[O-])c3)C(C)(C)C)cc2c1 | 3.4 | 1 | 1% | x | x
CCOC(=O)c1c(C)[nH]c(C)c1S(=O)(=O)N(C)CC(=O)N(C)Cc1ccccc1 | -2.2 | -3 | x | x | x
CCCc1cc(C(=O)N2CCCC(N3CCN(c4ccccc4F)CC3)C2)n(C)n1 (stereo not given) | 1.1 | -9 | x | x | x
COc1ccc(NC(=O)COc2cc(O)c3c(c2)OC(C)(C)CC3=O)cc1 | 7.8 | -10 | x | x | x
Cc1cc(Oc2ccc(=O)n(C)n2)nc(SCCOc2ccccc2)n1 | 1.2 | -6 | 2% | x | x
CCCNS(=O)(=O)c1ccc(CCC(=O)NCc2ccc3c(c2)OCO3)cc1 | 1.4 | -7 | -13% | 2 | -3
COc1ccc(C(=O)OC(C(=O)c2ccc(C)cc2)c2ccccc2)cc1 (stereo not given) | 12 | 48 | 9% | 3 | -7
CCOc1ccc(Cn2c(O)cc(=O)[nH]c2=O)cc1 | -1.2 | 5 | -6% | -34 | -4
C=CCOC(=O)C1=C(C)NC(SCC(=O)N(CC)CC)=C(C#N)C1c1ccccc1 (stereo not given) | 1.7 | -1 | x | -24 | -2
Cc1cc(N)ccc1NC(=O)c1ccccc1 | -4.5 | -9 | 6% | -49 | 6
Cc1c(Br)c([N+](=O)[O-])nn1CC(=O)Nc1nccs1 | -0.2 | 7 | 0% | x | 1
Cc1cccc(NC2=NC3(CCCCC3)N=C(N)N2)c1 | x | 6 | x | -4 | x
O=C(CCCCCn1c(=S)[nH]c2cc3c(cc2c1=O)OCO3)N1CCN(C2CCCCC2)CC1 | -1.0 | 16 | x | -28 | -6
CC(C)OC(=O)CSc1nc2ncc(Cl)cc2[nH]1 | -0.5 | -7 | 3% | -30 | 2
Nc1c(-c2ccsc2)cnc2ncnn12 | -3.4 | -3 | -6% | x | -5
COCCCNC(=O)CN1C(=O)c2ccccc2C1=O | -1.3 | -1 | -1% | 7 | 3
O=C(Nc1ccccc1)Nc1nccs1 | 0.5 | -1 | -5% | -26 | -4
O=C(COc1ccc(S(=O)(=O)N2CCOCC2)cc1)NCc1ccco1 | -5.0 | -2 | x | x | x
COc1ccccc1CC(=O)NC1CC1 | -1.9 | -6 | x | x | x
CCOc1ccccc1NC(=O)NNC(=O)CCc1ccc(OC)cc1 | 0.9 | 6 | x | x | x
C/C(=N\N=C(/C)c1cccc(N)c1)c1cccc(N)c1 | -1.5 | 2 | x | x | x
CCOC(=O)c1sc(/N=C/c2c(C)[nH]n(-c3ccccc3)c2=O)c(C#N)c1C | 2.0 | -8 | x | -11 | 6
CCc1c(C)nc2ncnn2c1N1CCCC(C(=O)NCc2ccc3c(c2)OCO3)C1 (stereo not given) | -2.3 | -9 | 6% | -32 | 3
CC(C)CN(C(=O)CSc1nnc(-c2cccs2)n1N)c1c(N)n(Cc2ccccc2)c(=O)[nH]c1=O | 0.8 | -3 | x | x | x
CC(=O)Nc1ccccc1OCC(=O)NCC(F)(F)F | 0.2 | -2 | 0% | x | 0
Cc1cccc(OCC(=O)N2CCN(C(=O)c3cccs3)CC2)c1 | 1.0 | -12 | 0% | -37 | 2

4 structures already listed, sorted by molar mass, ascending.
SMILES | RecA splice inh | Mtb bLac sens | Mtb growth | YopH inh | Arbovirus inh | others
CC(=O)Nc1ccccc1OCC(=O)NCC(F)(F)F | 0.2 | -2 | 0% | x | 0
CCOc1ccccc1NC(=O)NNC(=O)CCc1ccc(OC)cc1 | 0.9 | 6 | x | x | x
CCc1c(C)nc2ncnn2c1N1CCCC(C(=O)NCc2ccc3c(c2)OCO3)C1 (stereo not given) | -2.3 | -9 | 6% | -32 | 3
O=C(CCCCCn1c(=S)[nH]c2cc3c(cc2c1=O)OCO3)N1CCN(C2CCCCC2)CC1 | -1.0 | 16 | x | -28 | -6

Other structures follow:
SMILES | RecA splice inh | Mtb bLac sens | Mtb growth | YopH inh | Arbovirus inh | others
CCn1c(NC(=O)C(C)C)c(-c2ccccc2)c(=O)c2ccccc21 | -2.6 | -2 | -5% | x | x
O=C1CC(C(=O)Nc2ccc(Cl)cc2)S/C(=N\N=C\c2ccco2)N1 (stereo not given) | -3.4 | -4 | -8% | x | x
CC(C)CN(CC(C)C)C(=O)c1cccc(S(=O)(=O)N2CCc3ccccc32)c1 | 8.7 | -4 | 9% | x | 5
COc1ccc(CC2(CO)CCN(S(=O)(=O)c3c(C)nn(C)c3C)CC2)cc1 | -2.4 | -2 | -1% | x | -2
C(#Cc1ccc(C#CCN2CCOCC2)cc1)CN1CCOCC1 | -0.7 | 0 | 0% | -34 | -4 | Arbovirus inh repeat=5
Cc1nnsc1C(=O)NC1CCCc2c1cnn2-c1ccccc1F (stereo not given) | -5.0 | 4 | x | x | x
CCN1C(=O)[C@@H]2C(C(=O)c3cnccn3)=NN[C@@H]2C1=O | 12 | -10 | -3% | x | x
Cc1ccc(S(=O)(=O)N(c2ccccc2)C2CCS(=O)(=O)C2)cc1 (stereo not given) | 2.0 | -6 | -7% | -30 | -3
Cc1ccc(S(=O)(=O)NP(=O)(Oc2ccccc2)Oc2ccccc2)cc1 | 1.5 | 0 | -5% | -40 | 8
Cn1cnc([N+](=O)[O-])c1Oc1ccccc1 | 9.1 | 55 | 10% | -28 | -2
CCCCNC(=S)NNC(=O)c1cccnc1 | 0.4 | -2 | -9% | 5 | 5
O=C1C(Cl)=C(NCc2cccnc2)C(=O)c2ccccc21 | 76* | 84 | x | x | x
O=C(O)C1C2CCC(O2)C1C(=O)Nc1ccc(Cl)cc1 (stereo not given) | -2.1 | 0 | 3% | x | 4
COCCNC(=O)c1cnn2c(C(F)(F)F)cc(-c3ccc(C)cc3)nc12 | -6.6 | 4 | -3% | x | -23
CC(C)C(=O)Nc1ccc(C(=O)NN2C(=O)c3ccccc3C2=O)cc1 | -1.0 | -7 | -3% | -32 | 10
CCOC(=O)CCCNS(=O)(=O)c1c(C)ccc2nsnc12 | 0.2 | -6 | 1% | -11 | -2
COc1ccccc1C(=O)N/N=C/c1c[nH]c2ccccc12 | 1.2 | 3 | x | x | x
CCOc1cc(/C=N/O)ccc1OCc1ccc(C)cc1 | 10.0 | 74 | 14% | -15 | -11
COc1ccc(S(=O)(=O)N(CC(=O)N2CCCC2)Cc2ccccc2)cc1 | 3.6 | 1 | -11% | -46 | -1
COc1cccc(OCC(=O)N(Cc2nc(-c3ccc(Cl)cc3)no2)C(C)C)c1 | 5.0 | 7 | 6% | -17 | 20 | Arbovirus inh repeat=2
O=C(N/N=C/c1ccccn1)c1cc(-c2ccc(Cl)cc2)nc2ccccc12 | -5.7 | 93 | u | -24 | -12
COc1ccc(CC(=O)Nc2nc(-c3cccc([N+](=O)[O-])c3)cs2)cc1 | 0.7 | 3 | 2% | -28 | -11
COc1ccccc1C(CNC(=O)c1ccc(NS(=O)(=O)c2ccc(F)c(C)c2)cc1)N1CCCC1 (stereo not given) | -0.8 | 2 | x | x | x
O=S(=O)(NCc1ccco1)c1cccc(S(=O)(=O)N2CCOCC2)c1 | -1.6 | -6 | -2% | -14 | 10
COc1ccc(OC)c(/C=C/c2c([N+](=O)[O-])c(=O)n(C)c(=O)n2C)c1 | 2.2 | -1 | 11% | x | 0
CCOC(=O)C1=C(c2ccccc2)NC(N)=NC1c1ccc(OCc2ccc(Cl)cc2)c(OC)c1 (stereo not given) | 49* | 100 | 4.6µM* | x | x
CCC(C)N(CC(=O)NCc1ccc(OC)cc1)C(=O)c1csnn1 (stereo not given) | 1.6 | 1 | -7% | -32 | 4
